Sa ugtP lethal: growth inhibition of ugtP-null S. aureus, primary screen, RN4220 ugtP deletion, OD600; 16 h; some inactives read as strong as hits; growth inhibition, % (test concentration not listed); actives 0.54% (n = 330,000); AID 1259309, 2017;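 active means z-score under -3 and OD600 up to 0.15 on both plates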;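 further: plate controls were untreated wells for no effect and antibiotic for full effect; wells of about 80 µL received 100 nL stock; the first replicate is given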
PrP UTR inh: inhibition of PrP 5' UTR reporter expression | cell-based PrP 5' UTR mRNA reporter, plate reader | inhibition, % (concentration not given with the values) | actives 0.35% (n = 340,000) | AID 488862, 2010;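 active means every replicate at 50% or more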;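 further: 0 = median of the neutral control wells; tested in H4 reporter cells; numbers are from one replicate; inactives centre near -14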
BJeLR viability: MLPCN primary cell-based screen for lethality selective to Ras in HRASV12 cells; BJeLR (HRASV12) viability, CellTiter-Glo ATP luminescence, 48 h; reference of the scale not given here; inhibition, % (no concentration beside the values); actives 0.17% (n = 300,000);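 active means replicate mean above 50%; inconclusive means above 50% but judged a plate artefact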;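 further: 50 nL library stock added to about 25 µL; numbers are from one replicate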
Sa RN4220 lethal: growth inhibition of S. aureus RN4220, primary screen, OD600; AID 1259311, 2017; 16 h; actives 0.33% (n = 330,000); inhibition, % (test concentration not listed);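 active means z-score of -3 or lower and OD600 up to 0.18 on both plates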;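 further: plate controls were untreated cells for no effect and reference antibiotic for full effect; stock transfer was 100 nL into about 80 µL; one replicate is shown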
Autofluor counter: counter-screen for toxin protease inhibitors: compound fluorescence | fluorescence intensity (test concentration not listed) | actives 3.1% (n = 360,000) | AID 624483 | compound autofluorescence counterscreen, microsphere flow cytometry; active compounds read high;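 active means at least 3 SD above the mean of all compounds, about 16000 in these data; inconclusive means too few beads counted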;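 further: 100 nL of 1 mM stock went into each well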
Mtb hypoxia rep: PubChem AID 1159583 | M. tuberculosis hypoxia-regulated fluorescent reporter, fluorescence | fluorescence inhibition, % (no concentration beside the values) | actives 0.1% (n = 300,000);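 active means 35 to 45% if threefold the growth effect, above 45% if 1.5-fold the growth effect; inactive means the rest, general growth blockers included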;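 further: wells of about 50 µL received 100 nL stock; 0% = vehicle wells and 100% = reference inhibitor wells; whole bacteria with a GFP reporter of the hypoxia response; strong numbers were not always called active; many hits fall short of the cut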
Mtb hypoxia rep growth: recorded beside Mtb hypoxia rep, whose call it bears; growth inhibition, %; measured here: M. tuberculosis growth (absorbance);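 0% = vehicle and 100% = reference antibiotic; read after six days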
Numbers without * were called inactive; u = inconclusive; x = not tested or not shown.

Values in the order: Mtb hypoxia rep, Sa RN4220 lethal, Autofluor counter, Mtb hypoxia rep growth, BJeLR viability, PrP UTR inh, Sa ugtP lethal
- COc1ccc(CCNC(=O)C(=O)NCC2OCCN2S(=O)(=O)c2ccc(C)cc2)cc1 (stereo not drawn)
    2.2, -9.1, 6897, 4.7, -15.9, -1.7, -2.7
- Cc1cccc(N2C(S)=C(C#N)C(=O)NC23CCCCC3)c1
    12.1, 8.2, 9983, 1.0, 7.3, 4.8, 3.3
- CCOC(=O)c1ccc(NC(=O)c2cccc(S(=O)(=O)N3CCN(C(C)=O)CC3)c2)cc1
    -1.1, 3.5, 3619, 8.6, 11.0, -28.3, 10.4
- CC(=O)OC1CC2(C)C(C(C)=O)CCC2C2CCC3=CC(=O)CCC3(C)C12 (stereo not drawn)
    -0.8, -2.2, 3758, 16.3, x, -10.5, -1.7
- Cc1cccc(CSc2nnc(-c3cnccn3)n2C)c1
    17.1, 6.2, 3554, 10.0, 4.4, -33.4, 5.9
- CNC(=S)NNC(=O)CCn1nc(C)c(Br)c1C
    5.7, 0.4, 10858, -0.8, -3.5, -5.3, 6.1
- CC(C)(C)c1ccc(/C=N/NC(=O)CN2CCS(=O)(=O)CC2)cc1
    x, x, 5680, x, -8.5, -25.5, x
- Cc1ccsc1/C=N/NC(=O)c1nnn(-c2nonc2N)c1CN(C)c1ccccc1
    x, x, 5735, x, 3.3, 2.7, x
- Cc1cc(C)cc(NC(=O)CN2CCC(C(=O)c3ccccc3)CC2)c1
    6.0, 1.1, 4417, -1.8, -9.3, -11.9, 5.3
- N#CC1(c2ccccc2)CCN(C2CC(=O)N(c3ccc4c(c3)OCO4)C2=O)CC1 (stereo not drawn)
    8.9, 1.7, 2561, 4.6, -0.2, -30.2, 3.9
- Cc1cc(C(=O)CN2C(=O)NC(C)(c3cc(F)ccc3F)C2=O)c(C)n1C1CC1 (stereo not drawn)
    15.8, 6.5, 4170, 3.8, x, -19.1, 3.9
- CSCCC(=O)N1CCCC(CNC(=O)c2ccccc2Cl)C1 (stereo not drawn)
    0.4, 4.2, 3608, -1.1, 1.0, -5.3, 1.8
- CC(=C\c1ccco1)/C=C1/SC(=S)N(CC(=O)O)C1=O
    x, x, 4493, x, 0.9, -16.0, x
- Cn1nc(C(F)(F)F)c(-c2cccc(C(F)(F)F)c2)c1NC(=O)CSCC(=O)O
    -3.8, -4.1, 3147, 3.1, -6.5, -16.3, -7.5
- CC(=O)NCCNC(=O)c1ccc(CSc2ccc(Cl)cc2)cc1
    16.8, 15.7, 4532, 0.0, -24.6, -87.0, 9.6
- Cc1ccc(C=NNC(=O)c2nn(C)cc2Cl)cc1
    0.0, -4.7, x, 2.0, x, x, -0.7
- Cc1nn(Cc2c(Cl)cccc2Cl)c(C)c1NC(=O)c1cnn2c(C(F)F)cc(-c3ccccc3)nc12
    x, 2.4, 3939, x, -3.1, -0.2, -9.0
- O=C1c2ccccc2C(=O)N1CCc1csc(-c2ccccc2)n1
    13.8, 8.1, u, -4.2, -0.5, -14.0, -0.1
- COC(=O)[C@]1(CC(C)C)NC(c2ccc(-c3ccc(C(C)=O)cc3)cc2)C2C(=O)N(C)C(=O)C21 (stereo partly drawn)
    7.0, -2.3, x, 1.8, x, x, -10.5
- Cc1cc(C)c2c(c1)NC(C(=O)O)C1CC=CC21 (stereo not drawn)
    3.8, 6.4, 3117, -7.4, -5.3, -20.5, -1.7

One compound at a time (already shown).
CC(=O)OC1CC2(C)C(C(C)=O)CCC2C2CCC3=CC(=O)CCC3(C)C12 (stereo not drawn) is entered as Mtb hypoxia rep: -0.8; Sa RN4220 lethal: -2.2; Autofluor counter: 3758; Mtb hypoxia rep growth: 16.3; BJeLR viability: x; PrP UTR inh: -10.5; Sa ugtP lethal: -1.7
CSCCC(=O)N1CCCC(CNC(=O)c2ccccc2Cl)C1 (stereo not drawn) is entered as Mtb hypoxia rep: 0.4; Sa RN4220 lethal: 4.2; Autofluor counter: 3608; Mtb hypoxia rep growth: -1.1; BJeLR viability: 1.0; PrP UTR inh: -5.3; Sa ugtP lethal: 1.8

Later entries:
Values in the order: Mtb hypoxia rep, Sa RN4220 lethal, Autofluor counter, Mtb hypoxia rep growth, BJeLR viability, PrP UTR inh, Sa ugtP lethal
- CS(=O)(=O)NC1c2cccc3cccc(c23)C1Sc1nncn1/N=C/c1ccco1 (stereo not drawn)
    x, x, 3993, x, 10.9, -19.0, x
- Cc1ccc(NC(=O)CS(=O)CC(=O)NC2CCN(Cc3ccccc3)CC2)c(C)c1 (stereo not drawn)
    2.1, 0.6, 4588, 2.6, -9.8, -13.5, 2.7
- Cc1cc(F)ccc1NS(=O)(=O)c1c(C(=O)N2CCOCC2)c(C)n(C)c1C
    1.3, -0.4, 5215, 1.5, 8.6, -5.4, -1.4
- CCNc1nc(NCC)n2c(SCC(=O)Nc3cc(OC)ccc3OC)nnc2n1
    -1.6, 0.9, u, -3.9, 10.3, 6.4, 1.8
- COc1ccc(CCN2C(=O)C(Oc3ccccc3)C2c2ccc3c(c2)OCO3)cc1 (stereo not drawn)
    9.3, 2.5, 9998, 1.5, -4.3, -0.6, 6.6
- N=c1oc2c3c4c(cc2cc1C(=O)Nc1ccccc1)CCCN4CCC3
    -48.4, -2.1, 4122, 10.1, 0.3, -92.4, -5.9
- COc1ccccc1N(C)S(=O)(=O)c1ccc(C(=O)Nc2ccncc2)cc1
    4.0, 4.8, 5619, 15.2, -5.8, -13.1, -1.3
- CC1(C)Cc2c(c(-c3ccccc3Cl)[nH]c(=O)c2C#N)CO1
    x, 3.1, 4686, x, -5.9, -9.9, 7.2
- CN(C)C(CO)c1nnc(C(CC(=O)O)NC(=O)C2CCNCC2)o1 (stereo not drawn)
    -8.4, -0.5, x, 2.2, x, x, -4.7
- COc1ccc2oc(-c3ccccc3)c(C(N)=O)c2c1
    2.5, -0.3, 10119, 8.3, -8.1, -20.7, -4.9
- CCN1C(=O)/C(=C/C=C2/CCCN2C)OC1=S
    -3.2, 5.3, 2482, -0.1, -7.4, -41.5, 7.5
- CNC(=O)c1c(NC(=O)CCS(=O)(=O)c2ccccc2)sc(C)c1C
    5.7, 3.2, 4237, -6.4, 2.3, -8.7, 2.9
- CSCCC(NS(=O)(=O)c1ccccc1F)C(=O)NCC(C)(C)N1CCOCC1 (stereo not drawn)
    0.2, 2.6, 2890, -3.6, x, -41.1, 2.9
- O=C(NCc1ccco1)c1ccc2c(c1)N(Cc1ccc(Cl)cc1)CCS2
    1.0, -13.2, 4492, -4.0, -5.5, -10.7, 13.0
- CC1CN(C(C)CO)C(=O)c2cc(NC(=O)CCC(F)(F)F)ccc2OC1CN(C)C(=O)Nc1ccc2c(c1)OCO2 (stereo not drawn)
    17.9, 7.7, x, 9.6, x, x, 1.9
- COc1cc(/C=C2\NC(=S)N(C)C2=O)ccc1O
    6.0, 8.5, 4408, -5.2, -6.5, -16.1, 7.1
- CCCC(C)=NNC(=O)c1ccccc1O
    6.8, 6.9, x, 10.9, x, x, 8.3
- Cc1ccc(S(=O)(=O)N(CC(=O)N2CCOCC2)c2ccccc2F)cc1
    2.2, 3.6, 3645, 8.6, 0.4, -39.6, 8.1
- Cc1cccc(NS(=O)(=O)c2ccc(C)c(C(=O)NCc3ccncc3)c2)c1
    3.2, -1.1, 3251, 7.4, -16.3, -17.3, 1.7
- CCCOC(=O)c1ccc(NC(=O)c2ccoc2C)cc1
    8.2, 2.3, 3398, 9.1, 5.4, -90.0, -0.8
- CCOc1cc(C)cc2oc(=O)cc(-c3ccccc3)c12
    -2.0, -5.6, 10933, 8.4, -4.2, -8.3, -21.5
- CC1(C)N=C(c2cccs2)C(C)(C)N1O
    x, -2.3, 4279, x, 2.2, -22.1, 2.5
- CCOc1ccc2[nH]c(=O)c(CN(CCO)C3(c4nnnn4C4CCCCC4)CCCCC3)cc2c1
    x, -0.6, 3676, x, -6.5, -21.8, -4.6
- COc1cccc(-n2nnc3c(=O)n(Cc4cccc(C)c4)cnc32)c1
    7.8, -2.1, 5511, 3.8, 0.9, -3.2, 11.6
- O=C(c1ccco1)N1CCN(C/C=C/c2ccccc2)CC1
    x, 0.1, 2402, x, 6.0, -6.4, 10.7
- O=C(CCC1CCCN(C(=O)c2ccoc2)C1)NCc1ccc(F)c(F)c1 (stereo not drawn)
    18.6, 2.1, 4088, 9.4, 1.7, -32.6, 1.9
- CCNc1nc(N)nc(-c2cc(Cl)ccc2OC)n1
    x, 0.1, 4866, x, 1.5, -10.5, 8.1
- COc1ccc(NC(=O)CSc2ccccc2)cc1S(=O)(=O)N1CCCCC1
    2.2, -0.5, 2060, 6.5, -12.8, -20.2, 2.7
- O=C(Nc1ccc2ccccc2c1)N1C[C@H]2C[C@@H](C1)c1cccc(=O)n1C2
    2.7, -1.5, 5170, 2.0, -3.6, -19.0, -5.2
- CC(C)N(C(=O)Cn1cc(S(=O)(=O)CC(=O)NCc2ccccc2)c2ccccc21)C(C)C
    1.8, -0.3, 4161, 3.4, 5.5, -14.1, 4.6
- O=C(NCCCN1CCOCC1)C(=O)N/N=C/c1ccc(F)cc1
    x, x, 2024, x, -4.0, -17.3, x
- C=CCc1cccc(/C=N/NC(=O)C(C)Nc2ccc(C)cc2)c1O (stereo not drawn)
    x, x, 2515, x, -1.5, 15.6, x
- COc1ccc(N2CCN(C(=O)COC(=O)COc3cc(C)cc(C)c3)CC2)cc1
    0.1, 0.9, u, 7.9, 2.6, -16.9, 0.6
- COc1ccc(CC(=O)NNC(=O)c2ccc(NC(C)=O)cc2)cc1
    6.9, 2.0, 4454, 1.6, 2.3, -20.5, 6.6
- O=C1CCC(C(=O)OCC(=O)N2N=C3/C(=C/c4ccccc4)CCCC3C2c2ccccc2)N1 (stereo not drawn)
    2.2, 3.7, 20500*, 7.8, 6.2, -13.9, 0.1
- Cc1cc(C)n2nc(SCc3cccc(S(=O)(=O)N(C)C)c3)nc2n1
    13.0, 5.8, 3450, 8.0, 7.2, -19.5, 21.9
- O=C(CSc1n[nH]c(-c2cccs2)n1)NCc1cccs1
    7.2, 8.0, 10108, 13.1, -11.5, -15.5, 3.1
- O=C(COC(=O)/C=C/c1ccccc1[N+](=O)[O-])NCc1ccco1
    -13.0, -1.2, 3582, 12.1, x, -4.8, -1.3
- c1ccc(C2NCCc3ccccc32)cc1 (stereo not drawn)
    1.5, -0.3, 3537, 11.2, 1.3, -10.0, 4.4
- CN(C)c1ccc(/C=C2\C(=O)NC(=O)N(CCc3ccc(F)cc3)C2=O)cc1
    6.4, 1.5, 4181, -3.1, -1.7, -5.7, 1.5
- COc1ccc(N2CC(C(=O)OCC(=O)NCc3ccccc3)CC2=O)cc1 (stereo not drawn)
    -5.1, 0.7, 9106, -2.5, 2.4, -3.1, -1.4
- Cn1nnnc1SCCNCc1cccnc1
    -2.5, 1.1, 11069, 5.5, -10.9, -1.2, 2.2
- O=C(c1ccc(-n2c(SCc3cccc(F)c3)nc3ccccc3c2=O)cc1)N1CCOCC1
    4.5, -1.8, 8641, 0.6, 5.2, -15.3, -5.0
- O=C1Nc2cc(Cl)ccc2C1(N1CCNCC1)C(F)(F)F (stereo not drawn)
    11.6, 3.0, 18877*, 2.3, -1.9, -21.5, -6.0
- COc1cc(OC)cc(C(=O)NC(C(=O)Nc2ccc3nc(C)sc3c2)C(C)C)c1 (stereo not drawn)
    11.5, 0.3, 7926, 2.8, x, -28.7, 1.4
- CCN(CC)C(=O)c1ccc(C)c(Br)c1
    3.5, 1.3, 3569, 3.6, -4.8, -26.6, -0.2
- O=C(Nc1ccc2oc(=O)ccc2c1)c1ccc(-c2ccccc2[N+](=O)[O-])o1
    5.0, 4.4, 5314, -6.0, -2.5, -19.4, -5.9
- CC(=O)N1CN2CN(C(C)=O)CC(C(=O)c3ccc([N+](=O)[O-])cc3)(C2)C1
    1.0, 7.3, 2496, 12.4, -6.2, -31.3, 3.0
- CC(CN1CCC(n2nccc2NC(=O)CCCc2ccccc2)CC1)c1ccccc1 (stereo not drawn)
    8.6, -0.4, 8707, 10.8, 0.4, -32.9, 2.7
- CC1CN(S(=O)(=O)c2cccc(C(=O)OC(C)C(=O)NC3CCCCC3C)c2)CC(C)O1 (stereo not drawn)
    5.9, -6.7, 5317, -6.8, 1.7, -21.2, -3.1
- CCOC(=O)C1(c2ccccc2)CCN(CCC(=O)Nc2ccc(C(=O)OC)cc2)CC1
    6.1, 2.7, 7491, -4.6, x, -11.7, 7.2
- Cc1ccc(S(=O)(=O)N2CCCOC2CNC(=O)C(=O)NCCC2=CCCCC2)cc1 (stereo not drawn)
    5.9, 6.0, 2021, 2.3, -2.0, -21.8, 6.4

Assay outcomes (PubChem)
